Source: PubChem
CBX7 inh = inhibitors of human CBX7 binding to H3K27me3 peptide. O95931. normalised signal (fraction of DMSO) (concentration not given with the values). AlphaScreen His6-CBX7 / biotin-H3K27me3 peptide binding; active compounds read low. 66,000 compounds, 1.1% hits; in the data active = normalised signal below about 0.5;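 also: 100 nL library stock added to about 20 µL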
Target sequence (O95931 whole entry, looked up): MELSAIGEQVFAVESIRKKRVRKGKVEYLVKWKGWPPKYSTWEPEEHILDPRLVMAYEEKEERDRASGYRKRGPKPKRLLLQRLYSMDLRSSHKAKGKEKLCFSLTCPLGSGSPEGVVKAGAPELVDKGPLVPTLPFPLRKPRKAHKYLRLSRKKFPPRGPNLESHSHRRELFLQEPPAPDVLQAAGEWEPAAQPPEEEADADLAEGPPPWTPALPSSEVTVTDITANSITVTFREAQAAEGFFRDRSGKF
CBX7 inh z-score = also measured in CBX7 inh; calls as there; z-score; measured here: z-score of CBX7 signal; some inactives read as strong as hits; reference of the scale not given here;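 same signal on another scale; lower means less binding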
* hit, by the source's call; & = joins results of further samples. This is a subset; count on the stated rates, not on these rows.

SMILES	CBX7 inh	CBX7 inh z-score
O=C(c1ccccc1F)N1CCN(c2ccc3nncn3n2)CC1	1.2	2.7
O=C1C2C3C=CC(C3=C(c3ccccc3)c3ccccc3)C2C(=O)N1c1cccc(C(F)(F)F)c1 (configuration not stated)	0.84	-2
CCN(CC)S(=O)(=O)c1ccc(C(=O)Nc2nc(-c3c(C)cc(C)cc3C)cs2)cc1	0.96	-0.95
CC1CCN(S(=O)(=O)c2ccc3c(c2)N(CC(=O)N2CCCCC2)C(=O)CO3)CC1	1.1	1.8
CCNCC(O)C1(c2ccc(OC)c(OC)c2)CCCC1 (configuration not stated)	0.83	-2.1
CCCCN1CC(C(=O)NCc2ccc(F)cc2)CC1=O (configuration not stated)	1	2.4
CCc1cccc(C)c1Nc1c(-c2ccc(Cl)cc2)nc2ncccn12	1.1	0.61
CCN(c1cccc(C)c1)S(=O)(=O)c1ccc2[nH]c(=O)c(=O)[nH]c2c1	0.91	-0.11
C#CCOc1ccc(-c2nnc(Nc3ccc(F)cc3)c3ccccc23)cc1	1	-0.011
Cc1cc(N2CCC(C)CC2)nc2ccc(NC(=O)Cc3cccc(C(F)(F)F)c3)cc12	1.1	1.9
Clc1ccccc1N1CCN(c2ncnc3ccccc23)CC1	1	1.7
Cc1ccccc1-c1nc(CS(=O)(=O)CC(=O)N2CCC(Cc3ccccc3)CC2)c(C)o1	0.49*	-13*
Cc1ccc2oc(-c3cc(NC(=O)c4ccco4)ccc3Cl)nc2c1	1	0.45
CCOC(=O)c1cnc2ccccc2c1Nc1ccc(Cl)cc1	0.87	-1.4
CCOc1ccc2nc(NC(=O)c3ccc4c(=O)n5c(nc4c3)CCCCC5)sc2c1	0.88	-1.9
O=C1C2C3C=CC(C3=C3CCCC3)C2C(=O)N1c1cccc(C(F)(F)F)c1 (configuration not stated)	0.91	-1.4
O=C(Nc1ccccc1Cl)c1ccc2c(c1)N(Cc1ccc(F)cc1)C(=O)CS2	1.1	0.76
O=C(Nc1ccccc1C(F)(F)F)c1cc(-c2ccccc2)nc2ccccc12	1	0.96
COc1ccc(NC(=O)c2cc3c(-c4ccccc4F)nn(C)c3s2)cc1Cl	0.99	-0.16
Cc1c(C(=O)Oc2ccccc2)sc2ncn(Cc3ccccc3F)c(=O)c12	1.2	3.2
COc1ccccc1-c1nc(-c2ccc(NC(=O)c3cccs3)cc2)no1	0.88	-1.2
CCOc1ccc(NS(=O)(=O)c2cc(C(=O)O)ccc2NCCc2ccc(Cl)cc2)cc1	0.94	-0.61
O=C(Nc1ccccc1)N(CCCN1CCOCC1)Cc1cccnc1	1	0.047
CCOC(=O)c1ccc(NC(=O)c2c(NCc3ccc(OC)cc3)sc3c2CCC3)cc1	1	0.64
CC1CCN(C(=O)CSc2nnc(-c3ccccc3)o2)CC1	1.4	1
Clc1ccc(-c2nc(NCc3cccnc3)c3ccccc3n2)c(Cl)c1	1.1	2.1
CN(Cc1ccccc1)C(=O)c1cc(-c2cccc(Cl)c2)on1	0.98	-0.26
Cc1ccc(C(C(=O)NC2CCCCC2)N2CCC3(CC2)OCCO3)cc1 (configuration not stated)	1	1.7
CCc1nnc(NC(=O)CSc2nnc(CNC(=O)c3ccc(OC)c(OC)c3)o2)s1	1.1	2.2
COc1ccccc1CNC(=O)c1ccc2nc(-c3cccs3)c(-c3cccs3)nc2c1	1	0.019
COc1ccc2[nH]cc(CCNC(=O)C3CC3)c2c1	1.1	0.58
O=C(c1ccc2c(c1)ncn2-c1ccc(F)cc1F)N1CCCCC1	1	0.14
CCCOc1ccc(N2C(=O)CC(N3CCN(C(c4ccc(F)cc4)c4ccc(F)cc4)CC3)C2=O)cc1 (configuration not stated)	0.92	-4.3
COc1ccc(CN2CCN(Cc3ccc4ccccc4c3)CC2)cc1OC	0.77	-2.8
CC(=O)c1ccc(NC(=O)Cn2nc(C)cc2C)cc1	1	0.28
Cc1ccc(-c2cc(C(F)(F)F)n3ncc(C(=O)N(C)CCc4ccccn4)c3n2)cc1	0.97&0.96	-0.36&-0.65
COc1ccc(OC)c(NC(=O)c2cc3nc(-c4cccs4)cc(C(F)(F)F)n3n2)c1	0.95	-0.66
CCC1Oc2ccc(C)cc2N(CC(=O)NC2CCCCCCC2)C1=O (configuration not stated)	1.1	2.5
CCCOc1ccc(C(=O)N(Cc2cccs2)C2CCS(=O)(=O)C2)cc1 (configuration not stated)	1.1	1.1
COc1ccc(N2C(=O)CC(N(C)Cc3ccccc3)C2=O)cc1 (configuration not stated)	1.1	2.1
COc1ccccc1CNC(=O)c1ccc2c(c1)N(Cc1c(F)cccc1Cl)C(=O)CS2	0.98	-1.1
CCOc1ccc(-c2cc(C(=O)N3CCc4ccccc4C3)c3ccccc3n2)cc1	1.1	2
COc1ccc(CC(=O)Nc2c3c(nn2-c2ccc(Cl)cc2)CS(=O)(=O)C3)cc1	1	0.049
Cc1ccccc1CN1C(=O)CSc2ccc(C(=O)NC(C)CCc3ccccc3)cc21 (configuration not stated)	0.92	-0.76
Cc1ccccc1C(=O)Nc1sc2c(c1C(=O)N1CCOCC1)CCC2	1.1	1.1
O=C(CCc1ccccc1)NC(c1cccs1)c1cc(Cl)c2cccnc2c1O (configuration not stated)	0.45*	-1.9*
CCN(CC)S(=O)(=O)c1ccc2oc(C(=O)Nc3cc(C)ccc3OC)c(C)c2c1	1.1	2.4
O=C(NCc1ccccc1)c1ccc(Cl)c(NC2=NC3CS(=O)(=O)CC3S2)c1 (configuration not stated)	0.99	-0.23
CCc1cccc(CC)c1NS(=O)(=O)c1ccc2c(c1)CC(C)N2C(C)=O (configuration not stated)	0.81	-0.78
Cc1nc2ncnn2c(C)c1CCC(=O)NCCC1=CCCCC1	1.1	2.2
CC1c2nc3ccccc3n2C(CC(=O)NCCc2ccc(Cl)cc2)C(=O)N1Cc1ccccc1 (configuration not stated)	0.91	-1.4
COc1ccc(-c2nc3ccccc3n2C(=O)c2ccccc2C(=O)O)cc1	1.2	0.74
COc1ccc(C2(C(=O)NCC3CCCO3)CCOCC2)cc1 (configuration not stated)	1.1	0.97
CCCCCCCNC1CC(=O)N(c2cccc(Cl)c2)C1=O (configuration not stated)	1	0.017
CCc1cccc(C)c1NC(=O)CSCc1cnn(-c2ccccc2)c1-n1cccc1	0.99	-0.65
COc1cc(-c2nc(-c3cccc(C(F)(F)F)c3)c(-c3ccccc3)[nH]2)cc2c1OCO2	0.81	-6.8
Clc1cccc(-n2cc(-c3ccccc3)c3c(NCc4cccnc4)ncnc32)c1	0.83	-4.8
COC(CNC(=O)C1CCC(=O)N1Cc1ccccc1Cl)OC (configuration not stated)	1.1	1.6
Cn1nc(-c2ccc(OCC(=O)Nc3cccnc3)cc2)c2ccccc2c1=O	1.1	1.5
COc1cccc(Nc2nc(-c3ccccc3)c3cc(Cl)ccc3n2)c1	1.7	12
The list goes on:
SMILES	CBX7 inh	CBX7 inh z-score
Clc1cccc(Nc2c3c(nc4ccc(Cl)cc24)CCC3)c1	0.89	-0.15
O=C(CSc1nccn1-c1cccc(Cl)c1)Nc1ccccc1F	0.83	-3
Cc1csc2ncc(C(=O)NCCc3ccccc3)c(=O)n12	0.76	-2.9
CN1CCN(c2ccccc2NC(=O)CCc2nc(-c3ccccc3F)no2)CC1	0.98	-0.28
COc1ccc(Nc2nc3ccccc3nc2NS(=O)(=O)c2ccccc2)cc1OC	0.83	-4.9
CCOC(=O)c1c(C)n(C)c2ccc(OC(C)=O)c(S(=O)(=O)c3ccccc3)c12	1.1	0.73
COc1cc(Cl)c(C)cc1NC(=O)CCc1c(C)nc2c(-c3ccccc3)c(C)nn2c1C	1	1.2
Cc1ccc(CN2C(=O)c3ccccc3C2C(=O)NC2CCCCCCC2)cc1 (configuration not stated)	0.79	-4.2
Cc1ccc(CCNC(=O)C2CCN(S(C)(=O)=O)CC2)cc1	1	0.5
COc1ccc2oc(C(=O)c3ccccc3)c(NC(=O)CSc3ccccn3)c2c1	1.1	2.1
Cc1ccc(-c2noc(CCC(=O)N(C)c3cccc(C(F)(F)F)c3)n2)cc1	1	0.41
Cc1cccc(C)c1N(C)S(=O)(=O)c1ccc2[nH]cc(C(=O)NCc3cccnc3)c(=O)c2c1	0.85	-1.4

Complete entries as entered above. Screens in order: CBX7 inh, CBX7 inh z-score
`CCOC(=O)c1c(C)n(C)c2ccc(OC(C)=O)c(S(=O)(=O)c3ccccc3)c12` in the list: 1.1, 0.73
`COc1ccc2oc(C(=O)c3ccccc3)c(NC(=O)CSc3ccccn3)c2c1` in the list: 1.1, 2.1

(cont.)
SMILES	CBX7 inh	CBX7 inh z-score
COc1ccc(CCNC(=O)c2ccc3c(c2)nc(C)n3-c2cccc(C)c2)cc1OC	0.98	-0.91
Cn1cc(Cl)c(C(=O)Nc2nc3ccccc3s2)n1	1	1.2
Cc1ccccc1C(=O)Nc1nc2c(s1)C(=O)CC(C)(C)C2	0.98	-0.49
CC1=Nc2cc(C(=O)NCc3ccc4c(c3)OCO4)ccc2Sc2ccc(Br)cc21	0.75	-0.25
COc1ccc(-c2nc(NC3CCCCC3)c3ccccc3n2)cc1OC	0.81	-4
O=C(Nc1ccc(-c2nnc(-c3ccccc3)o2)cc1)C(c1ccccc1)c1ccccc1	0.98	-0.71
COc1ccc(C2=NOC(C(=O)N3CCN(Cc4ccccc4)CC3)C2)cc1OC (configuration not stated)	1	1.4
Cc1cc(C)c(Cc2c(C)nc3c(C(=O)N4CCC5(CC4)OCCO5)cnn3c2C)c(C)c1	1.1	1.5
Cc1ccc(-c2noc(COc3ccccc3)n2)cc1	1.3	14
Cc1ccc(-c2[nH]c(-c3ccc(F)cc3)nc2SCC(=O)NCC2CCCO2)cc1 (configuration not stated)	0.82	-2.9
COC(=O)c1cn(-c2ccccc2)nc1-c1cccnc1	1.1	1.6
Cc1cc(C)nc(NS(=O)(=O)c2ccc(Nc3nc(-c4ccccn4)cs3)cc2)n1	0.85	-5.3
Cc1ccccc1-c1cc(C(=O)N2CCN(c3ncccn3)CC2)c2ccccc2n1	0.98	-0.57
Cc1c(CNC2CCCC(C)C2C)c(C(=O)O)c(C)n1Cc1ccccc1 (configuration not stated)	0.99	-0.39
CCn1cc(C(=O)Nc2ccccc2C(=O)OC)c2cc(OC)c(OC)cc2c1=O	0.86	-1.2
Cc1ccc(C(=O)Nc2c(-c3ccccc3)nc3cc(C)ccn23)cc1	0.85	-1.9
COCCn1c(SCC(=O)Nc2cccc(F)c2)nnc1-c1c[nH]c2ccccc12	0.99	-0.077
Cc1cccc(N2CCN(C(=O)c3ccc(NC4=NC5CS(=O)(=O)CC5S4)cc3)CC2C)c1 (configuration not stated)	0.98	-0.29
CCc1ccc(Nc2cc(C)nc3nc(C)nn23)cc1	1	0.84
CCN1CCN(CCCNC(=O)CN2C(=O)COc3ccc(C(C)(C)C)cc32)CC1	0.98	-0.36
CCN1C(=O)CSc2ccc(C(=O)NCc3ccc(F)cc3)cc21	1	0.87
Cc1cccc(-n2ccnc2SCC(=O)Nc2ccc(C)c(Cl)c2)c1	0.97	-0.026
CCOC(=O)c1nnn(-c2nonc2N)c1CSc1ncn[nH]1	1	0.35
FC(F)(F)c1cc(-c2cccs2)nc(NCc2cccnc2)n1	0.85	-1.2

Part of the list above in another layout.
| SMILES | CBX7 inh | CBX7 inh z-score |
| --- | --- | --- |
| Cc1cccc(N2CCN(C(=O)c3ccc(NC4=NC5CS(=O)(=O)CC5S4)cc3)CC2C)c1 (configuration not stated) | 0.98 | -0.29 |
| CCc1ccc(Nc2cc(C)nc3nc(C)nn23)cc1 | 1 | 0.84 |
| CCN1CCN(CCCNC(=O)CN2C(=O)COc3ccc(C(C)(C)C)cc32)CC1 | 0.98 | -0.36 |
| CCN1C(=O)CSc2ccc(C(=O)NCc3ccc(F)cc3)cc21 | 1 | 0.87 |
| Cc1cccc(-n2ccnc2SCC(=O)Nc2ccc(C)c(Cl)c2)c1 | 0.97 | -0.026 |
| CCOC(=O)c1nnn(-c2nonc2N)c1CSc1ncn[nH]1 | 1 | 0.35 |

An excerpt from above in order of number of heavy atoms, highest first:
SMILES	CBX7 inh	CBX7 inh z-score
CC1=Nc2cc(C(=O)NCc3ccc4c(c3)OCO4)ccc2Sc2ccc(Br)cc21	0.75	-0.25
Cc1ccc(CN2C(=O)c3ccccc3C2C(=O)NC2CCCCCCC2)cc1 (configuration not stated)	0.79	-4.2
Cc1ccc(-c2noc(CCC(=O)N(C)c3cccc(C(F)(F)F)c3)n2)cc1	1	0.41
Cc1ccccc1C(=O)Nc1sc2c(c1C(=O)N1CCOCC1)CCC2	1.1	1.1
Cc1nc2ncnn2c(C)c1CCC(=O)NCCC1=CCCCC1	1.1	2.2

The listing continues.
SMILES	CBX7 inh	CBX7 inh z-score
CC(=O)Nc1ncc2c(n1)CC(c1ccc(F)cc1)CC2=O (configuration not stated)	1	-0.028
CCn1c(C(O)(c2ccccc2)c2nc3ccccc3n2CC)nc2ccccc21	0.89	-0.11
CCc1ccc(OCC(=O)Nc2cccc(-c3nc4ncccc4o3)c2)cc1	0.99	-0.2
Cc1nc(-n2nnc3cc(C)c(C)cc32)c2c3c(sc2n1)CCC3	1.1	0.76
Cc1cc(NC(=O)Cn2nc(Cc3ccncc3)c3ccccc3c2=O)no1	0.97	-1
CCc1cccc(NC(=O)Cn2c(SCc3cc(C)ccc3C)nc3ccncc32)c1	1	0.18
O=C(Cc1c(C(=O)O)[nH]c2ccccc12)Nc1ccc2c(c1)OCCO2	0.97	-0.75
CC(=O)Nc1ccc(Oc2nnc(-c3ccccc3)c3ccccc23)cc1	1	0.18
Cc1nc2c(C(=O)NCCN(C)C)cnn2c(C)c1Cc1ccc(F)cc1	1	2
CC1CC(C)CN(C(=O)CSc2nnc(-c3ccccc3)o2)C1 (configuration not stated)	0.97	-0.072
COc1ccc(-c2nn(C)c3sc(C(=O)NCCc4cccc(C)c4)cc23)cc1OC	1	0.48
Cc1ccc2c(N)c(C(=O)c3ccccc3)sc2n1	1.3	1.8
